Screening results (PubChem)
CSC inhib – cancer stem cell inhibition; cancer stem cell-like cells viability, luminescence; inhibition, % at 7.5 µM; 1.1% of 300,000 active; AID 2717;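 active means mean at 75% or more and at least half the replicates too; tested in HMLE shEcad cells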;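 further: 0% = median of negative and 100% = median of positive control wells; the first replicate is given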
Rce1 inh – yeast Ras-converting enzyme inhibition. yeast membranes, quenched prenylated peptide cleavage fluorescence. calls only. Q03530. 0.27% of 290,000 active;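 active means fall in fluorescence gain of 50% or more versus controls, with final raw signal at or below 3038400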;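 further: plate controls were neutral control wells for no effect and wells lacking membranes for full effect; tested at 10 µM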
Target sequence (Q03530 whole entry, looked up): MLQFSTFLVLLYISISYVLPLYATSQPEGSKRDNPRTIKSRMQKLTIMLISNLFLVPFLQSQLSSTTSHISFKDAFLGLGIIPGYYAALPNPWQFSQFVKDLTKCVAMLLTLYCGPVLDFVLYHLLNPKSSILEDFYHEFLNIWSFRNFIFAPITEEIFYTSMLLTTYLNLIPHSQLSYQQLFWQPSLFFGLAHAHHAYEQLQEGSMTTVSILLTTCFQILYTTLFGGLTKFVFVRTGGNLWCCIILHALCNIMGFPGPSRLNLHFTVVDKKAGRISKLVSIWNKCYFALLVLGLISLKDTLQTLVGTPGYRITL
MT1-MMP act inh – MT1-MMP (human) activation inhibition. AID 651647. P50281. 0.061% of 360,000 active. GFP/RFP ratio change, % at 20 µM. HT1080 RFP-PRO-GFP cells, GFP/RFP ratio fluorescence, overnight; percent of plate control window, DMSO zero;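 active means GFP/RFP ratio change of at least 30% with cell ATP level not reduced by more than half and red fluorescence within 50% of control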; further: strong numbers were not always called active
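Assay system: RFP-PRO-GFP reporter HT1080 cells; read-out basis: GFP/RFP fluorescence ratio; benchmarks: DMSO wells and RFP-L50D-GFP cells; doses: 20 µM single dose, 1% DMSO; schedule: overnight cell settling, then overnight compound exposure, 37 °C, 5% CO2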
eIF4H FP inh – inhibitors of RNA binding by human eIF4H; eIF4H fluorescence polarization binding assay; inhibition, % at 35 µM; 0.94% of 290,000 active;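 active means 50% or more with normal probe brightness, or confirmed in later tests; about a fifth of its hits are not listed in these tables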;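 further: calls also rest on retests at 20 µM and on dose response follow-up; 0% = protein and probe with vehicle and 100% = probe without protein; strong numbers were not always called active; many hits fall short of the cut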
UUG fidelity – alters start codon recognition fidelity in yeast. 0.13% of 350,000 active. activity score, % at 18.7 µM. S. cerevisiae UUG-firefly luciferase reporter, luminescence/redox ratio;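 active means replicate mean at a twofold rise or more, about +100% in these data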;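 further: firefly luciferase made from a UUG start codon reports start codon fidelity; reporter light over untreated wells divided by growth signal over untreated wells; some hits fall short of that in this replicate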
PABP FP inh – PABP-poly(A) binding inhibition. P11940. PABP-poly(A) RNA binding, fluorescence polarization. inhibition, % at 35 µM. 1% of 290,000 active. AID 2014;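 active means 50% or more with normal probe brightness, or confirmed in later tests; about a fifth of its hits are not listed in these tables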;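 further: calls also rest on retests at 20 µM and on dose response follow-up; controls were probe without protein and protein plus probe with vehicle; some compounds called inactive have numbers as strong as hits; many hits fall short of the cut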
Env fusion inh – inhibitors of HIV Env-mediated cell fusion; HeLa-JRFL Env/CEM21 cell fusion, luciferase; 1.1% of 360,000 active; inhibition, % at 12.3 µM; AID 651610;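 active means mean replicate inhibition score of at least 50 and every replicate individually at or above 50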;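 further: 0% = plate neutral controls and 100% = maraviroc near 300 nM; one replicate is shown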
MT1-MMP act inh RFP – also measured in MT1-MMP act inh; calls as there; RFP signal change, %; measured here: RFP expression control read;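 0 = vehicle wells; hits needed this value within 50% of zero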
* = called active by the depositor.

For C=CCn1c(SCC(=O)Nc2ccc(OC)cc2)nc2c([nH]c3ccccc32)c1=O the results were CSC inhib -2, Rce1 inh inactive, MT1-MMP act inh 0, eIF4H FP inh 1, UUG fidelity -19, PABP FP inh -1, Env fusion inh -17 and MT1-MMP act inh RFP 7.
Cc1cccc(N2CCN(C(=O)CCNS(=O)(=O)c3cccs3)CC2C)c1 (configuration not stated) was read as CSC inhib -22, Rce1 inh inactive, MT1-MMP act inh -4, eIF4H FP inh -8, UUG fidelity 10, PABP FP inh -17, Env fusion inh 0 and MT1-MMP act inh RFP -3.
`COc1cccc(OC)c1OCCN1CCC(C(=O)NC(c2ccccc2)c2ncccc2C)CC1` (configuration not stated) gave MT1-MMP act inh 3, UUG fidelity 10, Env fusion inh -2 and MT1-MMP act inh RFP 2.
For Cc1ccc2cc(C)c(Sc3nnnn3-c3ccccc3)nc2c1 the results were CSC inhib -4, Rce1 inh inactive, MT1-MMP act inh -3, eIF4H FP inh -2, UUG fidelity -15, PABP FP inh -6 and MT1-MMP act inh RFP -1.
For CC1=NN(/C(=N\c2nnc(C)s2)Nc2ccc(C)cc2)[C@H](c2ccc(C)cc2)S1 the results were CSC inhib -7, Rce1 inh inactive, MT1-MMP act inh 0, eIF4H FP inh -12, UUG fidelity -2, PABP FP inh -5, Env fusion inh 2 and MT1-MMP act inh RFP 2.
Screening Cc1ccc(NC(=O)Nc2cnc3ccccc3c2)cc1 returned CSC inhib 9, Rce1 inh inactive, MT1-MMP act inh 3, eIF4H FP inh -3, PABP FP inh -14, Env fusion inh -61 and MT1-MMP act inh RFP 0.
For COC(=O)C1(S(=O)(=O)c2cc(Br)cc3c2N(C(C)=O)CC3)CC1 the results were CSC inhib -12, Rce1 inh inactive, MT1-MMP act inh 6, eIF4H FP inh -5, UUG fidelity 8, PABP FP inh -8 and MT1-MMP act inh RFP 2.
For COc1ccc(C(=O)Cc2ccc3c(c2)OCO3)c(O)c1 the results were CSC inhib 0, Rce1 inh inactive, MT1-MMP act inh 0, eIF4H FP inh -7, PABP FP inh 14, Env fusion inh -65 and MT1-MMP act inh RFP 3.
For COc1cccc(-n2ccnc2SCC(=O)Nc2ccccc2F)c1 the results were CSC inhib -13, Rce1 inh inactive, MT1-MMP act inh 3, eIF4H FP inh -1, PABP FP inh 9, Env fusion inh 5 and MT1-MMP act inh RFP 0.
Screening COCCn1nnnc1C(C(C)C)N1CCSCC1 (configuration not stated) returned CSC inhib 7, Rce1 inh inactive, MT1-MMP act inh 0, eIF4H FP inh -17, UUG fidelity 1, PABP FP inh 7, Env fusion inh -12 and MT1-MMP act inh RFP 1.
`Cc1cc(OC(C)C(=O)Nc2ccncc2)ccc1Cl` (configuration not stated) gave CSC inhib -12, Rce1 inh inactive, MT1-MMP act inh 1, eIF4H FP inh 7, UUG fidelity -22, PABP FP inh 0, Env fusion inh 33 and MT1-MMP act inh RFP -21.
CCC(c1nnc(SCC(=O)Nc2cccnc2Cl)n1-c1ccccc1)N(C)C (configuration not stated) was read as CSC inhib 0, Rce1 inh inactive, MT1-MMP act inh -2, eIF4H FP inh 11, PABP FP inh -7, Env fusion inh -3 and MT1-MMP act inh RFP 4.
`COc1ccc(N/C=C2\CCc3ccccc3C2=O)cc1` gave CSC inhib 3, Rce1 inh inactive, MT1-MMP act inh -7, eIF4H FP inh -3, UUG fidelity -77, PABP FP inh 7, Env fusion inh -84 and MT1-MMP act inh RFP 1.
O=C(CSc1nnnn1C1CCCC1)c1ccc2c(c1)OCCO2 was read as CSC inhib -2, Rce1 inh inactive, MT1-MMP act inh -2, eIF4H FP inh 12, UUG fidelity -68, PABP FP inh -18, Env fusion inh -10 and MT1-MMP act inh RFP -2.
`Cc1cccc(NS(=O)(=O)c2cc(C(=O)N3CCN(C)CC3)ccc2C)c1` gave CSC inhib 4, Rce1 inh inactive, MT1-MMP act inh 1, eIF4H FP inh 2, UUG fidelity -7, PABP FP inh -8, Env fusion inh 13 and MT1-MMP act inh RFP 1.
For Cc1ccc(S(=O)(=O)NCCC(=O)NCc2cccnc2)cc1 the results were Rce1 inh inactive, MT1-MMP act inh 0, eIF4H FP inh -3, UUG fidelity -17, PABP FP inh 8, Env fusion inh -5 and MT1-MMP act inh RFP 5.
COc1cccc(C(=O)COc2ccc3c(C)cc(=O)oc3c2)c1 was read as CSC inhib 44, Rce1 inh inactive, MT1-MMP act inh 2, eIF4H FP inh -7, UUG fidelity 3, PABP FP inh -5, Env fusion inh 5 and MT1-MMP act inh RFP 1.
Screening Cc1ccc(OCC(=O)Nc2cc(NC(=O)COc3ccc(C)c(C)c3)cc(C(=O)O)c2)cc1C returned CSC inhib -5, MT1-MMP act inh 0, eIF4H FP inh 7, UUG fidelity -6, PABP FP inh 12, Env fusion inh 9 and MT1-MMP act inh RFP 1.
Screening Cc1noc(C)c1-c1nnc(-c2ccc(OC(F)(F)F)cc2)o1 returned CSC inhib 18, MT1-MMP act inh -3, eIF4H FP inh -8, PABP FP inh -8, Env fusion inh -59 and MT1-MMP act inh RFP -3.
O=C(OCC(=O)N1c2ccccc2Sc2ccccc21)c1ccc[n+]([O-])c1 was read as CSC inhib 11, MT1-MMP act inh -1, eIF4H FP inh 4, PABP FP inh 18, Env fusion inh 10 and MT1-MMP act inh RFP 1.

In the list so far, these contain fluorine:
For COc1cccc(-n2ccnc2SCC(=O)Nc2ccccc2F)c1 the results were CSC inhib -13, Rce1 inh inactive, MT1-MMP act inh 3, eIF4H FP inh -1, PABP FP inh 9, Env fusion inh 5 and MT1-MMP act inh RFP 0.
Screening Cc1noc(C)c1-c1nnc(-c2ccc(OC(F)(F)F)cc2)o1 returned CSC inhib 18, MT1-MMP act inh -3, eIF4H FP inh -8, PABP FP inh -8, Env fusion inh -59 and MT1-MMP act inh RFP -3.

Ordered by SMILES length (smallest number first): part of the list above.
`COc1ccc(N/C=C2\CCc3ccccc3C2=O)cc1` gave CSC inhib 3, Rce1 inh inactive, MT1-MMP act inh -7, eIF4H FP inh -3, UUG fidelity -77, PABP FP inh 7, Env fusion inh -84 and MT1-MMP act inh RFP 1.
For Cc1ccc(S(=O)(=O)NCCC(=O)NCc2cccnc2)cc1 the results were Rce1 inh inactive, MT1-MMP act inh 0, eIF4H FP inh -3, UUG fidelity -17, PABP FP inh 8, Env fusion inh -5 and MT1-MMP act inh RFP 5.
Screening Cc1noc(C)c1-c1nnc(-c2ccc(OC(F)(F)F)cc2)o1 returned CSC inhib 18, MT1-MMP act inh -3, eIF4H FP inh -8, PABP FP inh -8, Env fusion inh -59 and MT1-MMP act inh RFP -3.
O=C(OCC(=O)N1c2ccccc2Sc2ccccc21)c1ccc[n+]([O-])c1 was read as CSC inhib 11, MT1-MMP act inh -1, eIF4H FP inh 4, PABP FP inh 18, Env fusion inh 10 and MT1-MMP act inh RFP 1.

Further records
Screening CCOCc1nc2nc(Cl)c(Cl)nc2[nH]1 returned MT1-MMP act inh -20, UUG fidelity -6, Env fusion inh -4 and MT1-MMP act inh RFP 2.
For CC(C)Oc1cccc(NC(=O)C2(C)CCN2C(C)C)c1 (configuration not stated) the results were MT1-MMP act inh -6, UUG fidelity -13, Env fusion inh 17 and MT1-MMP act inh RFP 4.
Screening CCN(CC)c1ccc(S(=O)(=O)N2CCOCC2)cc1NC(=O)CSc1cccc[n+]1[O-] returned CSC inhib -6, Rce1 inh inactive, MT1-MMP act inh -3, eIF4H FP inh 9, UUG fidelity 12, PABP FP inh 19, Env fusion inh 1 and MT1-MMP act inh RFP 1.
`CCCCc1ccc(-c2nc(N)n[nH]2)cc1` gave CSC inhib -1, Rce1 inh inactive, MT1-MMP act inh 0, eIF4H FP inh -3, UUG fidelity -15, PABP FP inh -5, Env fusion inh -164 and MT1-MMP act inh RFP -3.
Cc1c(C(=O)NN2CCOCC2)oc2ccccc12 was read as CSC inhib -2, Rce1 inh inactive, MT1-MMP act inh 3, eIF4H FP inh -5, UUG fidelity 2, PABP FP inh -8, Env fusion inh -7 and MT1-MMP act inh RFP 3.
`COC(=O)c1ccccc1NC(=O)N[C@@H](C)C(=O)OC` gave CSC inhib 4, Rce1 inh inactive, MT1-MMP act inh -1, eIF4H FP inh -8, UUG fidelity -8, PABP FP inh 10 and MT1-MMP act inh RFP 4.
Screening COc1ccc([N+](=O)[O-])cc1NCC(=O)Nc1cc(S(=O)(=O)N2CCCCC2)ccc1C returned CSC inhib 2, MT1-MMP act inh -1, UUG fidelity -7 and MT1-MMP act inh RFP -13.
Screening O=C(Cc1ccsc1)NNC(=O)c1ccc(F)cc1 returned CSC inhib 6, Rce1 inh inactive, MT1-MMP act inh 0, Env fusion inh -2 and MT1-MMP act inh RFP 1.
For CCCc1c(C(=O)OCC)[nH]c2c1C(=O)CCC2 the results were CSC inhib 2, Rce1 inh inactive, MT1-MMP act inh 2, eIF4H FP inh -1, UUG fidelity -6, PABP FP inh -2, Env fusion inh -27 and MT1-MMP act inh RFP -2.
Screening S=C(NCC1CCCO1)N1CCN(Cc2ccccc2)CC1 (configuration not stated) returned CSC inhib 4, Rce1 inh inactive, MT1-MMP act inh 2, eIF4H FP inh 9, PABP FP inh 11, Env fusion inh -13 and MT1-MMP act inh RFP -2.
For CC(C)(C)CC(=O)OCC(=O)Nc1cc(C(C)(C)C)nn1-c1ccccc1 the results were CSC inhib -8, Rce1 inh inactive, MT1-MMP act inh -2, eIF4H FP inh -10, PABP FP inh -9, Env fusion inh 16 and MT1-MMP act inh RFP 1.
`COCCNC(=O)CSc1nnc(-c2ccccc2)c(-c2ccccc2)n1` gave CSC inhib -8, Rce1 inh inactive, MT1-MMP act inh -1, eIF4H FP inh -3, UUG fidelity -15, PABP FP inh 3, Env fusion inh 2 and MT1-MMP act inh RFP 1.
Cc1csc(=O)n1CC(=O)OCC(=O)c1ccc(Br)cc1 was read as CSC inhib -5, Rce1 inh inactive, MT1-MMP act inh 1, UUG fidelity -11, Env fusion inh -5 and MT1-MMP act inh RFP 1.
O=[N+]([O-])c1ccc(CN2CCCCCC2)cc1 was read as CSC inhib 0, Rce1 inh inactive, MT1-MMP act inh -1, eIF4H FP inh -6, UUG fidelity -15, PABP FP inh 2, Env fusion inh -2 and MT1-MMP act inh RFP 4.
Screening O=C(NC1CSCC1OC(=O)c1ccccc1)c1ccccc1 (configuration not stated) returned CSC inhib -6, Rce1 inh inactive, MT1-MMP act inh -1, eIF4H FP inh 6, UUG fidelity -1, PABP FP inh -6, Env fusion inh -22 and MT1-MMP act inh RFP 2.
`CCc1ccc(N2C(=O)CN(Cc3ccc(OC)c(OC)c3)C2=S)cc1` gave CSC inhib -8, Rce1 inh inactive, MT1-MMP act inh -10, eIF4H FP inh -2, UUG fidelity -7, PABP FP inh 0, Env fusion inh 24 and MT1-MMP act inh RFP -11.
`CSCCC(NS(=O)(=O)c1cccs1)C(=O)NCc1cccs1` (configuration not stated) gave CSC inhib 21, Rce1 inh inactive, MT1-MMP act inh 4, eIF4H FP inh 2, UUG fidelity -5, PABP FP inh -1 and MT1-MMP act inh RFP 9.
`Cc1ccc(C)n1-c1nnc(N2CCC(C(=O)N3CCN(C)CC3)CC2)s1` gave Rce1 inh inactive, MT1-MMP act inh -1, eIF4H FP inh 0, UUG fidelity -1, PABP FP inh 4, Env fusion inh -57 and MT1-MMP act inh RFP 1.
COc1ccc(N(CC(=O)NC2CCCC2)C(=O)c2ccc(C)s2)cc1OC was read as CSC inhib -15, Rce1 inh inactive, MT1-MMP act inh 1, eIF4H FP inh 0, UUG fidelity 0, PABP FP inh -2, Env fusion inh -5 and MT1-MMP act inh RFP 3.
`COc1cc2oc3ccc(C#Cc4ccccn4)cc3c(=O)c2cc1OC` gave CSC inhib 7, Rce1 inh inactive, MT1-MMP act inh 3, UUG fidelity -12, Env fusion inh -77 and MT1-MMP act inh RFP -1.
